# Rango complex inh: inhibitors of Rango-importin beta complex formation | actives 0.031% (n = 340,000) | Rango CFP/YFP FRET sensor + importin beta, 45 min | Potency, µM (titrated, usually from 92.2 µM), inactives show top-dose inhibition of complex formation | AID 540263; active = rising FRET ratio curve, often small or poorly fitted; inconclusive = mostly compound fluorescence or quenching in the first reads; inactive = flat curves in all reads;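 also: potency is read from the fitted curve at half-maximal effect; 0% = DMSO wells and 100% = buffer wells lacking importin beta; nearly all actives have a fitted effect of over 15% in size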
# Target sequence (Q14974 whole entry, looked up): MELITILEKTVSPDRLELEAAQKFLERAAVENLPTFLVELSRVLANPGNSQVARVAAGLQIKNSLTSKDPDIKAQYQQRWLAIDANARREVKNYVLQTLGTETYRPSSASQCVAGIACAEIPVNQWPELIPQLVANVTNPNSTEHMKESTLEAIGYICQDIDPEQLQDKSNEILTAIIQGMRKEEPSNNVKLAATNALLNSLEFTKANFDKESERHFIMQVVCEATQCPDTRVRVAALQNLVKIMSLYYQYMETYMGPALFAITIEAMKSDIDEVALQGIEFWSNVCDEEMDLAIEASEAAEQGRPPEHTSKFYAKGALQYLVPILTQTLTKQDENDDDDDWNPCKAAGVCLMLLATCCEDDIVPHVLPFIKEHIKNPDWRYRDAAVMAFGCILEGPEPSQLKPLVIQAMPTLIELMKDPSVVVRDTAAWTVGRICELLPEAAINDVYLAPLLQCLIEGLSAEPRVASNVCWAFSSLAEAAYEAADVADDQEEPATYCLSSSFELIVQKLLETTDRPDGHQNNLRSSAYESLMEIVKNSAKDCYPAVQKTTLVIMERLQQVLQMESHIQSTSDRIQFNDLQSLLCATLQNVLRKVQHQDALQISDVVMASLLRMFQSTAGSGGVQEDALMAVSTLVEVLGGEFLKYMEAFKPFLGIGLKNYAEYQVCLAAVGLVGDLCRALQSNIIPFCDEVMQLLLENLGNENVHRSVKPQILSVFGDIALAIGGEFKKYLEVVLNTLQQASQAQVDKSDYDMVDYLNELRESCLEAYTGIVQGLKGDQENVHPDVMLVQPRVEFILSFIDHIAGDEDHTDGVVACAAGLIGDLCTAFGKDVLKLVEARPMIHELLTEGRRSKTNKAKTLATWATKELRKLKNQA
#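 FRET biosensor (snurportin 1 IBB flanked by EYFP and cerulean), 50 nM, with compound 5 min, then 0.125 microM importin beta in PBS, 1 mM DTT, 0.02% Tween-20, 0.1% BSA. CFP/YFP ratio read after 45 min at room temperature; pre-read flags interference.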
# Rango dissoc inh: prevents RanGTP from dissociating the Rango-importin beta complex; O95149+P62826; Biochemical FRET Rango-importin beta, RanGTP-induced dissociation; Potency, µM (top dose mostly 46.1 µM), without a hit: top-dose activity change, negative = inhibition; actives 0.071% (n = 340,000); AID 540253; active means falling FRET ratio curve, often poorly fitted, with flat reads before Ran was added; inconclusive means other falling curves, or compound fluorescence or quenching; inactive means flat or rising ratio curve;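 also: potency is read from the fitted curve at half-maximal effect; % of control where 0% means no effect; nearly all actives have a fitted effect of over 45% in size; -100% = wells without RanGTP and RCC1; the record marks most hits as doubtful in a second field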
#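 Rango FRET biosensor (snurportin-1 IBB flanked by N-terminal EYFP and C-terminal CFP10) at 0.1 uM, with 0.25 uM importin beta in PBS, 1mM DTT, 0.02% Tween-20, 0.1% BSA. 0.6 uM Ran, 2mM GTP and 0.2 uM RCC1 were then added for 45 min at room temperature. Inhibition read as loss of FRET rise.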
# miR-21 reporter: miR-21 reporter, rising signal; HeLa miR-21 FLuc reporter, luciferase, 48 h; Potency, µM (doses to about 38.3 µM), for inactives: top-dose reporter change, positive = more light; 340,000 tested, under 10 active; active = well fitted rising curve with a large enough effect; inconclusive = small, poorly fitted or top-dose-only effect; inactive = no such curve, though single readings can be large or run the other way;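 also: % of control where 0% means no effect; miR-21 action dims this reporter so a rising signal means less miR-21 action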
#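 Luminescence from a firefly luciferase reporter carrying a miR-21 binding site downstream, stably expressed under a CMV promoter in HeLa cells that make miR-21 endogenously, reports miRNA modulation after 48 h compound exposure up to approximately 40uM final.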
# GLA inh pH 4.5: alpha-galactosidase A (human) inhibition, pH 4.5; P06280; purified enzyme, 4-MU-alpha-Gal fluorescence, pH 4.5; activity change, negative = inhibition, % at 105 µM; 230,000 tested, under 10 active; AID 1467; inconclusive = small, poorly fitted or top-dose-only inhibition, or a rising curve; inactive = flat fitted curve, though single readings scatter; no compound was filed as active;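 also: 0% = full activity with enzyme and -100% = basal without enzyme; dose as in the result columns while the protocol names 77 µM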
# * hit, by the source's call; ? = inconclusive; . = no result given. The list is partial; rates above refer to the full screens.
# Sample of the layout, five compounds:
SMILES,Rango complex inh,Rango dissoc inh,miR-21 reporter,GLA inh pH 4.5
O=C(O)CC(NC(=O)OCc1ccccc1)c1ccccc1 (centres undefined),-0.2%,1.8%,-3.0%,3.0
CN(C)C(CNC(=O)CCS(=O)(=O)c1ccccc1)c1ccccc1 (centres undefined),-2.3%,6.7%,-3.2%,.
CCCCNC(=S)Nc1ccc2nc3n(c(=O)c2c1)CCCCC3,-1.1%,6.4%,-24.7%,-9.9
O=c1cc2c(nn1Cc1ccccc1Cl)-c1ccccc1CC2,2.6%,-23.5%,-15.7%,-6.1
O=[N+]([O-])c1ccc([N+](=O)[O-])c(Nc2ccc(N3CCOCC3)cc2)c1,3.6%,-2.0%,-0.4%,-5.4

# All compounds of this part, from the first entry:
SMILES,Rango complex inh,Rango dissoc inh,miR-21 reporter,GLA inh pH 4.5
O=C(O)CC(NC(=O)OCc1ccccc1)c1ccccc1 (centres undefined),-0.2%,1.8%,-3.0%,3.0
CN(C)C(CNC(=O)CCS(=O)(=O)c1ccccc1)c1ccccc1 (centres undefined),-2.3%,6.7%,-3.2%,.
CCCCNC(=S)Nc1ccc2nc3n(c(=O)c2c1)CCCCC3,-1.1%,6.4%,-24.7%,-9.9
O=c1cc2c(nn1Cc1ccccc1Cl)-c1ccccc1CC2,2.6%,-23.5%,-15.7%,-6.1
O=[N+]([O-])c1ccc([N+](=O)[O-])c(Nc2ccc(N3CCOCC3)cc2)c1,3.6%,-2.0%,-0.4%,-5.4
CCc1ccc(S(=O)(=O)Nc2ccc(-c3ccc4nnc(C)n4n3)cc2)s1,0.4%,-3.5%,.,.
CC(C)CCNC(=O)C(C)N(C(=O)c1snc(C(N)=O)c1N)c1cnc2ccccc2c1 (centres undefined),-3.7%,-15.2%,-2.7%,2.9
O=[N+]([O-])c1cc(F)c(N2CCCCC2)cc1N1CCOCC1,-1.5%,-10.5%,-16.9%,-8.7
CC(=O)N1c2ccc(N=Cc3cc(Br)cc(Br)c3O)cc2CC1C (centres undefined),.,.,1.8%,15.9
COc1ccc(C=O)cc1C1=CC(=O)C[C@H](c2ccc(Cl)cc2)C1,-0.6%,1.2%,.,.
O=C(COc1ccccc1[N+](=O)[O-])OCCCOC(=O)COc1ccccc1[N+](=O)[O-],-0.4%,10.5%,-1.7%,.
Cc1cccc(N2CCN(C(=O)Cn3nc(Cc4ccncc4)c4ccccc4c3=O)CC2)c1C,-0.4%,-19.0%,.,.
COc1ccc(/C=C/C(=O)NC(=S)N2CCN(c3ccccc3OC)CC2)cc1,0.6%,-9.6%,-32.7%,-2.9
c1ccc(Cn2nnnc2C(c2ccncc2)N2CCOCC2)cc1 (centres undefined),-1.1%,5.7%,-0.9%,-0.5
Cc1cc(S(=O)(=O)NCc2ccccc2)ccc1OCC(=O)N1CCCC1,-1.1%,-7.6%,-1.9%,.
Cc1nnc(Oc2ccccc2)c2ccccc12,-0.5%,2.5%,-55.8%,1.9
CC(=O)c1ccn(S(=O)(=O)c2ccccc2)c1,-3.1%,1.8%,-1.9%,8.2
CC1CCN(c2ccc(NC(=S)NC(=O)c3ccc(-c4cccc([N+](=O)[O-])c4)o3)cc2)CC1,-4.4%,0.6%,-5.1%,-2.0
O=C(NCc1cccc(Cl)c1)N1CCN(S(=O)(=O)c2ccccc2F)CC1,4.1%,-0.1%,-1.0%,.
CC1CC(C)CN(C(=O)COC(=O)CNC(=O)C23CC4CC(CC(C4)C2)C3)C1 (centres undefined),-2.1%,-4.2%,.,.
CCOc1ccc(NC(=S)NC(=O)c2cccnc2)c([N+](=O)[O-])c1,-2.8%,-12.3%,-3.4%,.
CCCc1cc(=O)oc2cc(C)cc(OC(C)C(=O)NCCN3CCOCC3)c12 (centres undefined),-0.7%,8.0%,-8.4%,.
COC(=O)C1CN(C(=O)C(C)Oc2cccc(C)c2C)c2ccccc2O1 (centres undefined),0.3%,9.3%,-0.3%,.
O=C(CN1CCN(C/C=C/c2ccccc2)CC1)NCc1ccccc1,1.3%,7.8%,-3.1%,-15.7
O=C(Nc1nnc(-c2ccc3c(c2)CCCC3)o1)C1CCCCC1,0.5%,0.2%,-12.1%,1.1
COc1ccccc1OCCOc1ccccc1/C=N/n1cnnc1,0.5%,-1.1%,-24.7%,3.1
Cc1ccc(Cl)cc1NC(=O)COC(=O)CC1CC2CCC1C2 (centres undefined),-3.8%,-1.0%,0.0%,3.3
CCN(CCCNC(=O)CCCCn1c(=O)[nH]c2ccccc2c1=O)c1ccccc1,-0.8%,30.0%,-1.5%,-1.5
COc1ccc(C2CC3(O)CC(C#N)(C(=O)N3)C2(C#N)C#N)cc1 (centres undefined),0.5%,0.7%,?,-1.3
CCNC(=O)CC1C(=O)N(CC)C(=S)N1NC(=O)c1ccc(Cl)cc1 (centres undefined),1.1%,9.3%,-4.5%,1.8
Cc1ccc(-n2c(=S)[nH]c3sc4c(c3c2=O)CCc2ccccc2-4)cc1,1.8%,22.4%,-1.4%,-11.1
O=C(NCC1CCCO1)C1CCN(S(=O)(=O)c2ccc(Br)cc2)CC1 (centres undefined),-0.5%,19.8%,-4.3%,.
CCn1c2ccccc2c2cc(NC(=O)C(C)C)ccc21,1.6%,18.1%,-20.4%,4.0
O=C(NCCCN1CCOCC1)c1ccc2c(c1)N(Cc1ccccc1)CCS2,-1.3%,21.7%,0.1%,28.9
Clc1ccccc1-c1nc(-c2ccccc2)n[nH]1,-0.2%,10.8%,-34.0%,3.6
CCOc1ccc(NC(=O)c2cc(SC)ccc2Cl)cc1,9.8%,0.6%,-6.1%,0.9
COc1cccc(/C=C/C(=O)OCC(=O)c2c[nH]c3ccccc23)c1OC,0.0%,-2.0%,2.7%,-1.5
CC(C)(C)NS(=O)(=O)c1ccc(CCC(=O)Nc2cc(Cl)ccc2Oc2ccccc2)cc1,-1.7%,7.6%,12.6%,-5.6
COc1ccccc1-n1c(CNC(=O)c2ccco2)nnc1SCC(=O)Nc1ccc(F)cc1,-1.0%,23.4%,-7.3%,-1.0
Cc1ccc(C)c(SCC(=O)Nc2cccc(S(=O)(=O)NC3=NCCCCC3)c2)c1,-0.1%,1.9%,4.6%,-6.8
COc1ccc(NC(=O)c2ccc(NS(=O)(=O)c3cccc4cccnc34)cc2)cc1,1.6%,23.5%,-6.8%,.
N#C/C(C(=O)N1CCCCC1)=C1\Nc2ccccc2S1,-0.1%,3.8%,-46.6%,-3.0
C=CCN(c1ccc(F)cc1)S(=O)(=O)c1cc(C(=O)OCC(=O)N(C)C2CCS(=O)(=O)C2)ccc1Cl (centres undefined),6.0%,-14.7%,6.6%,-4.7
O=S(=O)(Nc1ccncc1Cl)c1ccc2ccccc2c1,-2.2%,-9.0%,-20.7%,-11.9
NC1=NC(=O)/C(=C\c2ccc(O)c([N+](=O)[O-])c2)S1,1.4%,10.3%,-5.9%,-7.3
CC1=C(C#N)C(C(F)(F)F)(C(F)(F)F)N=C(c2ccco2)N1,-2.3%,-6.4%,20.0%,-4.2
CCCCC(SCC(=O)Nc1ccccc1)C(=O)O (centres undefined),?,-10.3%,-22.0%,8.2
Cn1c(=O)c2c(nc(NCCO)n2CCCc2ccccc2)n(C)c1=O,0.1%,-1.8%,13.2%,.
O=[N+]([O-])c1ccc(-c2cn3c(n2)SCC3)cc1,4.5%,-17.1%,.,.
CC(=O)Nc1ccc(N(CC(=O)NCC2CCCO2)C(=O)CCC(=O)Nc2cc(C)on2)cc1 (centres undefined),-2.3%,32.8%,-0.3%,.
CCCCN(C(=O)CCSc1ccc(F)cc1)c1c(N)n(Cc2ccccc2)c(=O)[nH]c1=O,-1.6%,-25.8%,.,.
O=Cc1ccc2oc3nc4n(c(=O)c3c(=O)c2c1)CCCS4,0.3%,-4.2%,-0.6%,3.9
Cc1noc(C)c1NC(=O)Nc1ccc2c(c1)C(=O)N([C@H](C)CO)C[C@H](C)[C@@H](CN(C)C(=O)Nc1ccccc1)O2,-2.1%,-3.1%,.,.
CC(=O)N1c2ccc(S(=O)(=O)N3CCCC3)cc2CC1C(=O)NCc1cccc(F)c1 (centres undefined),-2.2%,-4.0%,2.9%,.
CCN(c1ccccc1)S(=O)(=O)c1ccc(C(=O)NCCCN2CCOCC2)cc1,0.6%,2.6%,.,.
COc1cc(S(=O)(=O)N(Cc2cccnc2)Cc2ccco2)ccc1-n1cnnn1,-4.0%,-2.2%,4.0%,-2.4
COc1ccc(-c2ccc(NS(=O)(=O)c3cc([N+](=O)[O-])c(C)c([N+](=O)[O-])c3)cc2)nn1,3.1%,1.7%,-3.8%,.
O=C(Nc1ccccc1C(=O)O)c1ccc2ccccc2n1,0.7%,-6.9%,-42.2%,1.7
Cc1ccc(C)c(S(=O)(=O)/N=C2\C=C(NS(=O)(=O)c3ccccc3)C(=O)c3ccccc32)c1,0.3%,-1.0%,0.7%,.
CCCCN(C)CCNC(=O)c1cn(C)c(=O)c2c1c1ccccc1n2C,-3.4%,-2.7%,3.1%,.

# The list continues:
SMILES,Rango complex inh,Rango dissoc inh,miR-21 reporter,GLA inh pH 4.5
CCN1CCCC1CNC(=O)CSc1cc(=O)n(C)c2cc(Cl)ccc12 (centres undefined),-0.5%,7.1%,-8.6%,-8.3
CO/N=C/NC(=O)c1ccc([N+](=O)[O-])c(CS(=O)(=O)c2ccc(Cl)cc2)c1,0.1%,-10.1%,-3.1%,-7.5
COc1ccc(S(=O)(=O)Nc2cccc3c2O[C@H](CN(C)S(=O)(=O)c2ccc(Cl)cc2)[C@H](C)CN([C@H](C)CO)C3=O)cc1,-2.4%,9.7%,.,.
COc1cccc(CCNC(=O)CC2C(=O)NCCN2Cc2ccc(C)o2)c1 (centres undefined),?,-3.5%,-8.5%,.
O=C(c1cccc2ccccc12)N1CCN(CC2CC=CCC2)CC1 (centres undefined),3.9%,3.9%,0.2%,-12.1
O=C(OC1CCCCC1=O)c1cc(S(=O)(=O)N2CCOCC2)ccc1F (centres undefined),2.6%,4.6%,1.1%,.
CC(=O)Nc1ccc(S(=O)(=O)N2CCC(NC(=O)C(Cc3cccn3C)NC(C)=O)CC2)cc1 (centres undefined),1.1%,6.5%,0.1%,0.5
O=C(CCn1c2c(c3ccccc31)CCCC2)NNC(=O)c1ccc(Cl)c([N+](=O)[O-])c1,-2.6%,0.1%,2.0%,-0.4
O=[N+]([O-])c1ccc(N2CCN(C(=S)Nc3cccc(F)c3)CC2)cc1,-3.1%,-21.5%,9.3%,-13.0
COc1ccc(C2CC(c3cccs3)=NN2C(=O)CCC(=O)O)cc1 (centres undefined),-0.2%,-1.4%,-6.9%,.
CCOC(=O)C1CCN(C(=O)/C=C/c2cc(OC)c(OC)c(OC)c2)CC1,1.3%,7.2%,-1.7%,1.8
Cc1nc(-c2ccc(F)cc2)c(CC(=O)N(C)CC(=O)Nc2ccc(Cl)c(C(F)(F)F)c2)s1,1.2%,1.3%,.,.
CCC(=O)Nc1sc(Cc2ccccc2)c(C)c1C(N)=O,-5.0%,-10.9%,3.2%,-3.8
COc1cccc(/C=C2/C(=O)NN(c3ccc(Br)cc3)C2=O)c1O,-0.5%,10.1%,-12.3%,.
NC(=O)c1ccsc1NC(=O)COC(=O)CNC(=O)c1cccc([N+](=O)[O-])c1,-0.1%,-3.7%,.,.
Nc1ccc(S(=O)(=O)c2ccc(Cl)cc2)cc1,0.1%,16.0%,-4.3%,-8.0
O=C(O)c1ccc(NS(=O)(=O)/C=C/c2ccccc2)cc1O,-4.1%,1.1%,0.0%,3.7
O=C(CCN1C(=O)CSC1=O)Nc1ccc(Br)cc1,-1.7%,-0.9%,-6.1%,0.4
S=C(NCc1cccnc1)Nc1ccc2c(c1)OCO2,-3.2%,-7.8%,-13.6%,.
O=S(=O)(Nc1ncccn1)c1ccc(NC(=S)Nc2ccccc2)cc1,0.3%,-1.9%,-3.1%,.
